Source: PubChem BioAssay (Southern Research Specialized Biocontainment Screening Center)
Mtb bLac sens = beta-lactam sensitization of Mtb H37Rv. M. tuberculosis H37Rv growth with meropenem, percent inhibition; hits of this screen are not shown here. inhibition, % at 25 µM. 330,000 compounds, 0.27% hits;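 active = about 74% or more and at least 40 points above the plate without the antibiotic, then above 30% in a dose series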;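 note: growth measured after seven days incubation then overnight dye step; 0% = bacteria only wells and 100% = bacteria with antibiotic; twin plates without the antibiotic show which effects depend on it; some results filed as inactive read as strong as hits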
An asterisk follows results filed as active. A portion of the library, so the mix of outcomes need not match the whole.

SMILES	Mtb bLac sens
COc1ccc(CCC(=O)OCC(=O)NCc2ccc(OC)c(OC)c2)cc1OC	0
Cc1noc(C)c1NC(=O)Nc1cccc2c1O[C@H](CN(C)C(=O)NC1CCCCC1)[C@@H](C)CN([C@H](C)CO)C2=O	8
CS(=O)(=O)c1ccc(Cl)c(NC(=O)CCN2C(=O)C3CC=CCC3C2=O)c1 (stereo not given)	-5
CCCCNC(=O)c1cc(C)nc2ccccc12	-7
C#CCOCCOCCOCCNc1nc(N2CCOCC2)nc(N2CCN(C(=O)[C@H](CCCN=C(N)N)n3cc(C(N)[C@@H](C)CC)nn3)CC2)n1 (stereo not given in full)	0
Cc1ccc(NC(=O)CN(C)C(=O)CSc2ccc3c(c2)OCCO3)cc1	2
CCN1C(=NCC2CC2)N[C@@H](c2ccccc2)C(C(=O)OC)=C1C	3
COc1cc([C@@H]2CC=C(C(=O)O)[C@H](c3ccccc3F)N2S(=O)(=O)c2ccc(C)cc2)cc(OC)c1OC	-5
CCCCn1c(N)c(N(CCC(C)C)C(=O)C2=NN(c3ccccc3)C(=O)CC2)c(=O)[nH]c1=O	-6
CCN(C[C@H]1N[C@@](CC)(C(=O)OC)[C@H]2C(=O)N(Cc3ccccc3)C(=O)[C@@H]12)C(=O)c1ccccc1	3
Cn1nc(C(=O)OCC(=O)c2ccc(Cl)cc2)c2ccccc2c1=O	2
CN(CC(=O)Nc1ccc(Cl)cc1)C(=O)c1ccc(N2CCCC2=O)cc1	-2
Cc1cc(C)cc(NC(=O)COC(=O)Cn2cnc3c2c(=O)n(C)c(=O)n3C)c1	-8
CCN(CC(=O)NCc1cccs1)CC(=O)Nc1ccc(C(N)=O)cc1	-1
COc1cc(F)c(C2=CC(=O)C[C@H](c3ccc(Cl)cc3)C2)cc1F	63
O=C(Nc1ccc(F)cc1)C1CCN(C(=O)c2ccc(F)cc2)CC1	5
COc1cccc(NC(=O)COc2cccnc2[N+](=O)[O-])c1	-5
Cc1cccc(N2CC(C(=O)NCc3ccco3)CC2=O)c1C (stereo not given)	3
O=C(CSc1nnc(-c2cccs2)n1C1CC1)NC1CCS(=O)(=O)C1 (stereo not given)	16
CC(C)N(CC(N)=O)c1ccc(S(=O)(=O)N2CCCC2)cn1	-5
O=C(Cc1cccs1)Nc1cc(S(=O)(=O)N2CCCCC2)ccc1Cl	3
O=C(C1CCN(S(=O)(=O)c2ccccc2)CC1)N1CCN(c2ccccc2F)CC1	-4
Cc1ccc(S(=O)(=O)CCC(=O)Nc2nc(-c3ccccn3)cs2)cc1	89
COc1ccc(CN2C(=O)c3ccccc3C2=O)cc1C(=O)N(C)CC(=O)Nc1ccc(F)cc1	-5
O=C1C=C(c2cccc(CO)c2)C[C@@H](c2ccc3c(c2)OCO3)C1	7
CN(C(=O)COC(=O)Cc1ccccc1[N+](=O)[O-])C1CCS(=O)(=O)C1 (stereo not given)	5
COc1ccc(CNC(=O)COC(=O)c2ccc3ncsc3c2)cc1OC	8
COc1ccc(NC(=O)C2CCC2)cc1S(=O)(=O)Nc1cc(C)ccc1Br	-6
O=C(OCc1nnc(-c2ccccc2)o1)C1CC(=O)N(CCc2ccccc2)C1 (stereo not given)	-1
COC(=O)c1ccc(NC(=O)c2cc(-c3ccncc3)nc3ccccc23)cc1	13
Cc1ccc(S(=O)(=O)N2CCCCC2)cc1NC(=O)CSc1nnc(C2CC2)n1N	2
O=C(CCCOC(=O)c1cccnc1Cl)c1ccc(Br)cc1	-4
Cc1ccc(NC(=O)c2cnccn2)cc1S(=O)(=O)N1CCCCCC1	-11
Cc1occc1-c1nnc(SCC(=O)c2c(N)n(C3CC3)c(=O)[nH]c2=O)n1C	-1
Cc1cc(C)n2nc(C(=O)OCC(=O)NCc3ccc(F)cc3)nc2n1	-3
COc1ccc(CNC(=O)CN(c2ccccc2OC)S(=O)(=O)c2cccs2)cc1	1
Cc1ccccc1C(=O)Nn1cnnc1	3
CCn1nnnc1SCC(=O)N1c2ccccc2NC(=O)CC1C (stereo not given)	-3
O=C(CSc1ccccc1)NCCc1ccccc1	-5
COc1ccc(NC(=O)CNC(=O)Cc2cccc3ccccc23)cc1	1

Quoted from the listing, 2 compounds:
SMILES	Mtb bLac sens
O=C(Cc1cccs1)Nc1cc(S(=O)(=O)N2CCCCC2)ccc1Cl	3
O=C(C1CCN(S(=O)(=O)c2ccccc2)CC1)N1CCN(c2ccccc2F)CC1	-4

Continuation:
SMILES	Mtb bLac sens
COc1ccc(CC(=O)NNC(=O)CN(C)S(=O)(=O)c2ccc(Cl)cc2)cc1OC	-5
Cc1ccc2nc(NC(=O)CSCC(=O)Nc3cc(C)on3)sc2c1	-11
CC[C@]12c3[nH]c4ccccc4c3CCN1C(=O)C(CC(=O)NCCCN(C)C)C[C@@H]2C(=O)N1CCN(C(=O)c2ccco2)CC1 (stereo not given in full)	0
O=C(CCc1nc2ccccc2c(=O)[nH]1)Nc1nnc(SCc2ccc(Cl)cc2)s1	0
COc1cc(/C=C/C(=O)O)cc(S(=O)(=O)Nc2cc(C(F)(F)F)ccc2N2CCOCC2)c1OC	2
O=C(COc1ccccc1[N+](=O)[O-])Nc1ccc2c(c1)CCC2	-8
COc1ccc(S(=O)(=O)N2CCOCC2)cc1NC(=O)CSc1nnc(C2CC2)n1C1CC1	-3
Cc1cc(C)cc(N2CC(C(=O)NC3CCCCC3)CC2=O)c1 (stereo not given)	7
COC(=O)[C@]1(C)N[C@H](CN(C)S(=O)(=O)c2ccccc2)[C@@H]2C(=O)N(C)C(=O)[C@@H]21	2
Cc1ccc(S(=O)(=O)NCC(C)n2nc(C)nc2C)cc1 (stereo not given)	3
O=C(COC(=O)c1ccc(Cl)c(S(=O)(=O)NCc2ccccc2)c1)NC1CC1	-6
Cc1ccccc1NC(=O)Cc1nc(COC(=O)CCc2ccccc2)cs1	1
Cc1cccc(C)c1Nc1nnc(SCC(=O)NCCCN2CCCC2=O)s1	-11
C/C(=C\c1ccc(C(=O)O)cc1)c1ccc2c(c1)C(C)(C)CCC2(C)C	86
CC1(C)CC(=O)C=C(c2ccc(Cl)c(C(F)(F)F)c2)C1	8
CCOC(=O)[C@H]1[C@H]2COc3ccc(OC)cc3[C@@H]2N2C(=O)CN(Cc3ccc(Cl)cc3)C(=O)[C@@]12C	-4
COc1ccc(NC(=O)C2=NN(C3CCS(=O)(=O)C3)C(=O)CC2)cc1S(N)(=O)=O (stereo not given)	-6
COc1ccc(C2=NOC(Cn3nc(C(=O)NCc4cccc(Br)c4)cc3-c3ccccc3)C2)cc1 (stereo not given)	-3
Cc1cc(C(=O)CN2C(=O)C(=O)N(Cc3ccccc3)C2=O)c(C)n1Cc1ccc(F)cc1	67
O=C1C[C@H](NC(=O)OCc2ccccc2)CO1	-2
COc1cc2cnc(-c3ccccc3)c(-c3ccc(C#N)cc3)c2cc1OC	73
N#CCC(=O)Nc1ccc(C(=O)NNC(=S)NC2CCCCC2)cc1	9
Cc1ccc(N2C3=C(C(=O)CC(C)(C)C3)C(c3cn(C)nc3C)C3=C2CC(C)(C)CC3=O)cc1	-6
CCOC(=O)c1c(C)[nH]c(C)c1C(=O)COC(=O)c1ccc([N+](=O)[O-])s1	99
Cc1ccc(S(=O)(=O)Nc2ccc3cn[nH]c3c2)c(C)c1	1
COC(=O)C1=C(c2cccc(C#N)c2)C[C@@H]2CC[C@H]1N2C(=O)NC(C)C	-4
CN(CC(=O)Nc1ccccc1Cl)C(=O)COC(=O)c1ccc([N+](=O)[O-])s1	81
C=CC[C@@H](CC(=O)N[C@@H](CO)Cc1ccccc1)C(=O)N[C@@H](COC(=O)[C@@H](CC=C)CC(=O)OC(C)(C)C)Cc1c[nH]c2ccccc12	-5
Cc1onc(-c2ccccc2)c1-c1nnc(CN2CCN(S(=O)(=O)c3ccccc3F)CC2)o1	-5
NC(=O)CCS(=O)(=O)CCN1CCN(S(=O)(=O)c2ccc3c(c2)CCC3)CC1	-12
CCN(C[C@H]1N[C@@](CC)(C(=O)OC)[C@H]2C(=O)N(Cc3ccccc3)C(=O)[C@@H]12)C(=O)Nc1ccc(C(F)(F)F)cc1	1
CCN(C(=O)COC(=O)CNC(=O)c1ccccc1C)C1=CCCCC1	17
O=C(COC(=O)Cn1cc(C(F)(F)F)ccc1=O)Nc1ccccc1	-6
CC(NC(=O)c1ccco1)C(=O)Nc1nccs1 (stereo not given)	4
Cc1cccc(Oc2ccc(NC(=O)C3=CC=CN4CCS(=O)(=O)N=C34)cc2)c1	1
Cc1ccc(S(=O)(=O)N2[C@@H](c3ccc(Br)cc3)C(C(=O)O)=CC[C@H]2c2cccc(Cl)c2)cc1	0
CCOC(=O)c1sc2nc(C)nc(NCCc3ccc(S(N)(=O)=O)cc3)c2c1C	-4
CCN(Cc1ccc(OC)c(F)c1)C(=O)c1cc2ccccc2o1	66
CCC(C)(C)C1CCC2(CC1)NC(=O)N(CC(=O)NCCOc1ccccc1)C2=O (stereo not given)	-8
CCN(C(=O)COc1ncnc2ccccc12)C1CCCCC1	1
CCN(CC)C1CCN(Cc2c(C(=O)N3CCCCCCC3)nc3ccc(Cl)cn23)C1 (stereo not given)	-7
CCCn1nc(C(=O)Nc2ccc3c(c2)OCCO3)c2ccccc2c1=O	6
CCN(C(=O)CSc1nnc(C)n1-c1cccc(C)c1)C1CCS(=O)(=O)C1 (stereo not given)	6
COC(=O)C1=CO[C@@H](O[C@@H]2O[C@H](CO)[C@@H](O)[C@H](O)[C@H]2O)C2C1C=C[C@@]2(O)CO (stereo not given in full)	5
COc1ccc(S(=O)(=O)NC(C)C(=O)Nc2ccc3c(c2)OCCO3)cc1OC (stereo not given)	-4
O=C(/C=C/c1ccccc1[N+](=O)[O-])Nc1cccc(S(=O)(=O)NC2=NCCCCC2)c1	-3
Cc1cccc(/C=C(\C(=O)O)c2ccc(S(=O)(=O)N3CCCC3)s2)c1	1
COc1cc(CC(=O)N2CCN(C(=O)C3CCCO3)CC2)cc(OC)c1OC (stereo not given)	-4
COc1ccc(C(CNC(=O)COc2ccc(-c3ccccc3)cc2)N2CCOCC2)cc1 (stereo not given)	-4
O=C(CSc1nnc(-c2ccccc2F)o1)NC(=O)Cc1ccccc1	0
COC(=O)C1=CO[C@@H](O[C@@H]2O[C@H](CO)[C@@H](O)[C@H](O)[C@H]2O)[C@H]2[C@@H]1C(=O)C[C@@H]2C	1
CC(=NNC(=O)c1cccc(S(=O)(=O)N2CCOCC2)c1)c1ccccc1	3
CCC/C(=C1/c2ccccc2C(=O)N1c1ccccc1)c1ccc(O[C@@H]2CCCCO2)cc1	1
CN(Cc1ccccc1)C(=O)c1ccc(NC(=O)Cc2cccc(NC(=O)C3CCCN(C(=O)C4CCC4)C3)c2)cc1 (stereo not given)	2
Cc1cc(C)n(CC(=O)NNC(=O)CC(C)c2ccccc2)n1 (stereo not given)	-12
COc1cc(CC(=O)OCC(=O)NCc2ccco2)cc(OC)c1OC	3
O=[N+]([O-])c1cccc(CP(=O)(c2ccccc2)c2ccccc2)c1	2
Cc1c(C(=O)Nc2ccc3nc(N4CCOCC4)sc3c2)oc2ccccc12	96
CC(=O)c1ccc(NC(=O)COC(=O)CCC2CCCC2)cc1	-6
COc1cc(C(=O)Nc2cc(OC)c(OC)c(OC)c2)ccc1OCc1c(C)noc1C	-1

An excerpt of these results, with bars between the fields:
Structure | Mtb bLac sens
COC(=O)C1=CO[C@@H](O[C@@H]2O[C@H](CO)[C@@H](O)[C@H](O)[C@H]2O)[C@H]2[C@@H]1C(=O)C[C@@H]2C | 1
CC(=O)c1ccc(NC(=O)COC(=O)CCC2CCCC2)cc1 | -6
CCC/C(=C1/c2ccccc2C(=O)N1c1ccccc1)c1ccc(O[C@@H]2CCCCO2)cc1 | 1
COc1ccc(S(=O)(=O)NC(C)C(=O)Nc2ccc3c(c2)OCCO3)cc1OC (stereo not given) | -4
Cc1cc(C)n(CC(=O)NNC(=O)CC(C)c2ccccc2)n1 (stereo not given) | -12
COc1cc(CC(=O)OCC(=O)NCc2ccco2)cc(OC)c1OC | 3

A draw from above in order of heavy-atom count, lowest first:
SMILES	Mtb bLac sens
Cc1cccc(/C=C(\C(=O)O)c2ccc(S(=O)(=O)N3CCCC3)s2)c1	1
CCN(C(=O)CSc1nnc(C)n1-c1cccc(C)c1)C1CCS(=O)(=O)C1 (stereo not given)	6
Cc1c(C(=O)Nc2ccc3nc(N4CCOCC4)sc3c2)oc2ccccc12	96
COc1ccc(S(=O)(=O)NC(C)C(=O)Nc2ccc3c(c2)OCCO3)cc1OC (stereo not given)	-4

Continued.
SMILES	Mtb bLac sens
COCCn1c(C)cc(/C=C2/SC(=O)N(CC(=O)N3CCCC3)C2=O)c1C	-7
NC(=O)C1CCN(C(=O)COc2ccc3ccc(=O)oc3c2)CC1	-12
Cc1ccccc1S(=O)(=O)/N=C(/Nc1nc2ccccc2s1)c1ccccc1	-8
O=C(NCCN1CCN(c2ccccc2Cl)CC1)Nc1ccccc1	-3
Cc1ccc(S(=O)(=O)NCCCNS(=O)(=O)c2ccccc2[N+](=O)[O-])cc1	3
CC1CCCC(NC(=O)COC(=O)/C=C/c2ccco2)C1C (stereo not given)	33
NC(=O)c1ccc(SCC(=O)OCC(=O)NC2CCCCCCC2)c([N+](=O)[O-])c1	4
CN(C(=O)COC(=O)CSCc1cccc(Cl)c1)c1c(N)n(Cc2ccccc2)c(=O)[nH]c1=O	8
Cc1nnc2ccc(-c3ccc(NS(=O)(=O)c4ccc(Cl)s4)cc3)nn12	-9
Cc1ccc(NC(=O)CCN2C(=O)NC3(CCCC3)C2=O)cc1S(=O)(=O)N1CCOCC1	-6
CCC(C)NC(=O)CSc1ccc(S(=O)(=O)N2CCN(Cc3ccccc3)CC2)cn1 (stereo not given)	-4
CN(c1ccccc1)S(=O)(=O)c1ccc(C(=O)N2CCN(c3ccccc3Cl)CC2)cc1	7
N#Cc1c(SCC(=O)Nc2nc3ccccc3s2)sc2c(O)cc(=O)[nH]c12	-3
Cc1onc(-c2ccccc2Cl)c1C(=O)OCC(=O)N1CCCCC1	-6
CCCc1cc(=O)[nH]c(SCC(=O)NCC2COc3ccccc3O2)n1 (stereo not given)	-6
COc1ccc([C@@H]2CC=C(C(=O)O)[C@H](c3ccc(C)cc3)N2S(=O)(=O)c2ccccc2C)cc1	0
